Source: PubChem (ICCB-Longwood Screening Facility, Harvard Medical School)
BasE inh: BasE siderophore enzyme inhibitors, primary screen, biochemical, Acinetobacter baumannii ATCC 17978, fluorescence polarization | inhibition, % (no concentration beside the values) | purified BasE, fluorescence polarization binding displacement | hit rate 0.1% among 84,000 | AID 485350, 2010;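 active = both replicates above 25% with normal brightness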;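 note: 0% = negative plate control signal and 100% = positive plate control signal; stock transfer was 100 nL into about 30 µL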
KSHV LANA nucl: inhibitors of KSHV LANA-nucleosome binding, primary screen, biochemical, fluorescence polarization, FITC-LANA1-23, chicken nucleosomes | FITC-LANA1-23 / chicken nucleosome fluorescence polarization; active compounds read low | z-score (concentration not given with the values) | hit rate 0.3% among 51,000 | AID 720717, 2013;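 active = both repeat wells score below -2 in polarization z-score versus plate sample wells, excluding overly bright wells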;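 note: 100 nL library stock added to about 30 µL; numbers are from one replicate; some results filed as inactive read as strong as hits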
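test system = FITC-LANA peptide and chicken nucleosomes | amount = 240 nM purified chicken nucleosomes (480 nM peptide binding sites), final | reagent = 50 nM FITC-LANA1-23 probe | medium = TEN-BT buffer, pH 7.5 | doses = single compound addition by pin transfer, 100 nL per well | timing = 10–45 min, room temperature | detection = fluorescence polarization | repeats = duplicate plates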
Numbers without * were called inactive; x = not tested or not shown; & = joins results of further samples. Only part of the results is shown. The share of hits here may be higher or lower than overall.

Every second line gives: BasE inh, KSHV LANA nucl
Cn1c(=O)cc(SCC(=O)NCCN2CCN(c3cccc(Cl)c3)CC2)c2ccccc21
 : 2.2, -0.244
CCCc1cc(NCCc2ccccc2)n2c(nc3ccccc32)c1C#N
 : 2.4, x
Cc1cc2nnc(SCCC(=O)O)n2c2ccccc12
 : -0.6, 0.203
O=C(COC(=O)[C@@H]1CCCN1C(=O)c1cccs1)Nc1ccccc1
 : 0.6, x
CS(=O)(=O)Nc1ccc2c(c1)C(=O)NC2=O
 : 0.1, x
CC(=O)Nc1ccc(/C=C2/C(=O)N=C(N)N2C)cc1
 : 6.0, 0.146
O=C1NCC(O)=C1/C=N/Nc1ccccc1
 : 2.2, -0.688
CCN1C(=O)/C(=C/c2ccc3c(c2)OCO3)OC1=S
 : -0.8, 0.843
O=C(/C=C/c1c(Cl)nc2ccccn12)OCC1CCCO1 (stereo not given)
 : -2.2, x
COc1cc(C(=O)N=C2C(C)=CC(=O)C=C2C)cc(OC)c1OC
 : 24.8, x
N#Cc1ccccc1CO/N=C/c1ccc(N2CCOCC2)cc1
 : -0.7, x
CCN1C(=O)C(C(c2ccncc2)c2c(O)n(CC)c(=S)n(CC)c2=O)C(=O)N(CC)C1=S (stereo not given)
 : -0.8, 0.0545
S=C(NCc1cccnc1)c1ccccc1
 : -0.5, x
O=S(=O)(NCc1ccc2c(c1)OCO2)c1ccc(I)cc1
 : 0.1, 0.609
CNCCc1ccccn1
 : -0.2, -0.0225&0.18
COc1ccc(/C(C)=N/N=C(N)N)c(O)c1
 : 2.4, x
NC(=S)N1C(c2ccccc2)CCN1c1ccccc1 (stereo not given)
 : 0.2, x
CCCCN(C(=O)c1sc2nc3n(c(=O)c2c1C)CCCCC3)C1CCN(C(C)=O)CC1
 : -1.4, 0.712
CSC(=S)N(C)/N=C/c1cc(Cl)cc(Cl)c1O
 : -0.4, x
O=C(O)Cn1cccn1
 : 0.1, x
N#C/C(=C/c1ccc(-c2cccc(C(F)(F)F)c2)o1)c1cccc(F)c1
 : 0.3, 0.482
CS/C(=C(\C#N)C(=O)C1CC1)N1CCOCC1
 : -4.6, x
O=C(CSc1nc2c(c(=O)[nH]1)CN(Cc1ccccc1)CC2)Nc1ccccc1
 : 1.6, -1.62
COc1ccc(NC(=O)CN(C)C(C)C(=O)N2CCCCC2)cc1 (stereo not given)
 : 2.9, x
O=C1c2ccccc2C(=O)c2c1oc(-c1ccccc1)c2C(=O)c1ccccc1
 : 1.8, x
Cc1nn2c(CN(C(=O)CN3CCOCC3)c3ccccc3)nnc2c2ccccc12
 : -2.2, 1.08
CC(C(=O)NCc1ccc(F)cc1)N1Cc2ccccc2C1=O (stereo not given)
 : -1.8, 0.227
Cc1ccc(/C=N/N2CCOCC2)s1
 : -0.7, x
CCN(C(=O)c1ccc(S(=O)(=O)N2CCC(C)CC2)cc1)C1CCS(=O)(=O)C1 (stereo not given)
 : -1.1, x
O=S1(=O)CCN(N2CCCCC2)CC1
 : x, 2.28
Cc1ccc(S(=O)(=O)N(CC(=O)Nc2ccc3c(c2)OCCO3)C2CCCCC2)cc1
 : 1.6, x
O=C(O)/C=C/c1cc(C(F)(F)F)ccc1Cl
 : 0.1, x
CCOc1ccc(NC(c2ccccn2)c2oc(CO)cc(=O)c2O)cc1 (stereo not given)
 : -2.1, x
CC1CCCN(C(=O)COC(=O)c2ccc(-c3cccc(C(F)(F)F)c3)o2)C1 (stereo not given)
 : -0.8, x
Cc1cc(C)cc(OCCSc2nc3ccccc3n2CCC#N)c1
 : 2.6, x
Cc1ccc(S(=O)(=O)n2nc(-n3c(C)ccc3C)c3c(F)cccc32)c2ccccc12
 : -1.1, x
CCN(CC)C(=O)[C@]1(c2ccccc2)C[C@@H]1CN
 : x, -0.441
CC12C(=O)N(CCC(=O)O)C(=O)C1C1C=CC2C1 (stereo not given)
 : -4.3, x
CCn1c(N)c(C(=O)COC(=O)CC2Sc3ccccc3NC2=O)c(=O)[nH]c1=O (stereo not given)
 : -2.4, x
CCc1ccc(C2C(C#N)=C(N)Oc3cc(N)ccc32)cc1 (stereo not given)
 : 2.2, -0.11
CN(C)c1n[nH]c(=O)[nH]c1=O
 : 1.4, x
COc1cccc(C(=O)NC(Cc2ccccc2)C(=O)O)c1 (stereo not given)
 : x, 0.246
O=C(C(NS(=O)(=O)c1ccccc1)c1ccccc1)N1CCCC1 (stereo not given)
 : -3.7, 1.31
CCc1cccc(N2C(=O)C(Cc3ccccc3)N=C2N2CCCCC2)c1 (stereo not given)
 : 0.6, 0.518
Cc1cc(C)cc(C(=O)N2CCCCCC2)c1
 : 3.0, 0.219
COc1ccc(C(=O)c2oc3ccccc3c2NC(C)=O)cc1
 : 0.4, 1.63
Cc1nc(-c2cc(C#N)c(Oc3ccc(C(F)(F)F)cc3)nc2C)cs1
 : 0.5, x
CCN(CC)Cc1oc(-c2ccccc2)cc1C(=O)O
 : 2.8, -0.362
Cn1c2ccccc2c2nnc(SCC(N)=O)nc21
 : 1.7, 0.0065
CCCCn1c(CSc2ccccn2)cn(-c2nnc(C(C)(C)C)s2)c1=O
 : 1.9, x
Clc1ccc(CCNc2ncnc3c2nc2n3CCCC2)cc1
 : -5.2, 1.25
Cn1c(C2Sc3ccccc3NC2=O)ccc1C1Sc2ccccc2NC1=O (stereo not given)
 : 1.0, x
O=C(CSc1nnc(SCC(=O)NCC2CCCO2)s1)NCC1CCCO1 (stereo not given)
 : -0.3, x
Cc1cc(N2CC(C)CC(C)C2)nc2cc(Cl)ccc12 (stereo not given)
 : 3.5, -1.24
S=C(NCc1ccco1)NC1CCCc2ccccc21 (stereo not given)
 : -3.0, x
O=C(O)COc1ccc(/C=C2\SC(=O)N(Cc3ccc(F)cc3)C2=O)cc1
 : -0.9, x
Cc1cccc(-n2ncc(C(=O)N3CCCC3)c2-n2cccc2)c1
 : 0.6, x
CCN(CC(=O)Nc1ccc2c(c1)OCCO2)C(=O)/C=C/c1ccco1
 : 3.5, x
COc1ccc(C(=O)Nc2c(O)c3ccccc3oc2=O)cc1OC
 : 2.2, -0.047
COc1ccccc1Nc1nc(C2(C)CCC(=O)O2)cs1 (stereo not given)
 : -0.1, x

Rewritten with each value named: part of the list above.
CCN(CC)Cc1oc(-c2ccccc2)cc1C(=O)O
  BasE inh: 2.8; KSHV LANA nucl: -0.362
Cn1c2ccccc2c2nnc(SCC(N)=O)nc21
  BasE inh: 1.7; KSHV LANA nucl: 0.0065
CCCCn1c(CSc2ccccn2)cn(-c2nnc(C(C)(C)C)s2)c1=O
  BasE inh: 1.9; KSHV LANA nucl: x
Clc1ccc(CCNc2ncnc3c2nc2n3CCCC2)cc1
  BasE inh: -5.2; KSHV LANA nucl: 1.25

(next part)
Every second line gives: BasE inh, KSHV LANA nucl
CN1C(=O)C(Cc2ccccc2)(Cc2ccccc2)c2ccccc21
 : -2.0, x
CN1CCN(NC(=O)CCN2C(=O)/C(=C\c3ccco3)SC2=S)CC1
 : 0.1, 0.217
Cc1noc(C)c1C(=O)COC(=O)c1ccc(S(=O)(=O)N2CC(C)OC(C)C2)cc1 (stereo not given)
 : 3.2, x
CC(C)=CC[C@@H](O)C1=CC(=O)c2c(O)ccc(O)c2C1=O
 : 12.9, -0.704&0.263
COC(=O)CC(=O)CN1C(=O)c2ccccc2C1=O
 : -0.9, 0.323
CN1CCN(Cc2c(O)ccc3c(=O)c(-c4ccc(Cl)cc4Cl)c(C(F)(F)F)oc23)CC1
 : 1.7, x
Cc1cccc(N2N=C(C(=O)N3CCc4ccccc4C3)CCC2=O)c1
 : 1.6, x
COc1ccc(CCN(Cc2cc3cc(C)ccc3n3nnnc23)C(=O)N(C)C)cc1OC
 : 0.5, -0.481
CC(=O)n1c(C=Nc2ccccc2)c(O)c2ccccc21
 : 8.2, x
COc1ccc(CNC(=O)CCNc2ccc(C)cc2)cc1
 : 0.6, x
NS(=O)(=O)c1ccc(NC(=O)COC(=O)CN2C(=O)C3CC=CCC3C2=O)cc1 (stereo not given)
 : 1.0, x
Cc1ccc(-n2ncc(N(C)N3CC(C)(C)C3=O)c(Cl)c2=O)cc1
 : -0.1, x
N#Cc1c(OCC(F)(F)F)ccc(SCc2ccccc2)c1OCC(F)(F)F
 : 1.3, x
O=C(COC(=O)c1ccccc1Br)c1cc2ccccc2o1
 : -1.6, x
O=C1CC2(CCCC2)C(=O)N1CN1CCN(S(=O)(=O)c2ccc(F)cc2)CC1
 : 1.0, x
O=C(OCc1cc(Cl)cc2c1OCOC2)c1ccc2c(=O)n3c(nc2c1)CCCCC3
 : -0.8, x
CC1CN(S(=O)(=O)c2cccc(C(=O)N(C)C3CCCCC3)c2)CC(C)O1 (stereo not given)
 : 2.0, x
COc1ccc(NC(=O)C2C3C=CC(C3)C2C(=O)NCc2ccco2)cc1 (stereo not given)
 : -2.8, -0.746
COc1ccc(S(=O)(=O)CCC(=O)O)cc1
 : 0.2, -0.916
O=C(CC(NCc1ccco1)C(=O)O)Nc1cccc(C(F)(F)F)c1 (stereo not given)
 : -4.0, 1.84
O=C(c1[nH]c2ccccc2c1-c1ccccc1)N1CCOCC1
 : x, -0.507
CCN(CC)Cn1c(O)c(N=NC(=O)Cc2ccc(OC)cc2)c2cc(Br)ccc21
 : 1.4, -0.339
CC(OC(=O)C1CCN(C(=O)c2ccc(Cl)cc2)CC1)C(=O)NC1CC1 (stereo not given)
 : 0.3, x
CC(=O)Nc1ccc(C(F)(F)F)cc1N
 : 1.4, 0.684
CCC1CCCCN1C(=O)CSc1nnc2c3ccccc3n(CC(=O)O)c2n1 (stereo not given)
 : 1.2, 0.78
O=C(Cn1nnc(-c2ccc(Cl)cc2)n1)NCC(F)(F)F
 : 0.1, x
c1csc(CNc2ccc3c(c2)oc2ccccc23)c1
 : 1.9, -0.665
Cc1cc(C(=O)NCC2CCCO2)on1 (stereo not given)
 : 1.1, -0.996
CC(=O)c1c(C)[nH]n(-c2nc3ccccc3s2)c1=O
 : -3.1, 0.855
CS(=O)(=N/C=C(\C#N)S(=O)(=O)c1ccc(C(F)(F)F)cn1)c1ccc(Cl)cc1 (stereo not given)
 : 0.2, x
O=C(Cc1c(F)cccc1Cl)n1nnc2ccccc21
 : 0.4, -0.0695
COc1ccc(N2Cc3ccccc3C2=O)cc1
 : 0.0, -0.183
CC1CCCCN1C(=O)c1cc2nc(-c3ccc(Cl)cc3)cc(C(F)(F)F)n2n1 (stereo not given)
 : 1.6, x
COc1cccc2cc(-c3cn4ccccc4n3)c(=O)oc12
 : -0.5, x
NCCCC[C@H](N[C@@H](CCc1ccccc1)C(=O)O)C(=O)N1CCC[C@H]1C(=O)O
 : -1.1&0.7, 0.222&-0.079&1.31&1.18
COc1ccc(-c2cc3nc(C)c(CCC(=O)N4CCCC4)c(C)n3n2)c(OC)c1
 : 1.3, -0.341
O=C(NCc1ccco1)c1cccc(-c2nnc(-c3ccccc3)o2)c1
 : -1.8, 1.62
CCN1/C(=C(\C#N)c2nc(C#N)c(C#N)nc2N2CCOCC2)Nc2ccccc21
 : 0.5, -3.2*
CC(C)COc1ccc(C(=O)N2N=C(C(F)F)CC2(O)C(F)F)cc1 (stereo not given)
 : 1.3, -0.119
CCn1c(SCCc2ccccc2)nc2cc(S(=O)(=O)N3CCOCC3)ccc21
 : -1.5, x
CN(C)/C=C1\SC(=S)N(c2ccc(Br)cc2)C1=O
 : 7.6, -8.95*
CC(=O)NCc1ccc(S(N)(=O)=O)cc1
 : 4.4, x
CC(C)CNC(=O)c1ccccc1N
 : -3.0, x
CCCCCCc1cc2cc(C#N)c(=O)oc2cc1O
 : -9.0, 0.732
c1csc(C2=NCCC2)c1
 : 0.8, x
CCOc1ccc(CCNC(=O)C2CCCN(S(C)(=O)=O)C2)cc1OCC (stereo not given)
 : 0.1, -0.483
CC(C)CC1NC(C(=O)O)Cc2c1[nH]c1ccccc21 (stereo not given)
 : -1.9, 0.283
COC(=O)c1ccccc1NC(=O)NCc1ccccn1
 : -2.5, -0.791
c1ccc(-c2nc(N3CCCCC3)c3ccccc3n2)cc1
 : 0.4, 0.367
Cc1cc(-c2csc(N)n2)c(C)n1Cc1ccco1
 : -0.7, x
COc1ccc(NC(=O)COC(=O)c2ccc(N3CCCC3=O)cc2)cc1
 : 2.2, x
CCOc1ccc2nc(NCCNC(=O)C3CCCCC3)c(C#N)cc2c1
 : -0.7, -0.822
O=C1/C(=C/c2cccs2)N=C(c2cccs2)N1Nc1ccccc1
 : -1.5, 0.441
O=C(NCc1ccccc1)c1cc(=O)[nH]c2ccccc12
 : 2.1, x
CCc1cccc(CC)c1N(COC)C(=O)Cn1nnc2ccccc21
 : 2.0, x
O=C(Nc1ccccc1)N1CCCC1
 : 2.2, 0.064
Cc1ccc(CNC(=O)CSCc2c(C)noc2C)cc1
 : -3.1, x
CCn1c(NC(=O)Nc2ccccc2OC)nc2ccccc21
 : 1.1, x
CC(=O)Oc1cc2c(C(=O)NCC3CCCO3)c(C)oc2c2ccccc12 (stereo not given)
 : -1.2, 0.83
O=C(/C=C/c1ccccc1)Nc1nnc(-c2ccc(Br)cc2)o1
 : 0.4, 0.383
C[n+]1ccn(C/C(N)=N/O)c1
 : 1.8, 0.398
COc1ccc(C(C)=NNC(=O)C(C)Nc2ccc(C)cc2)cc1 (stereo not given)
 : 0.2, -0.145
N#Cc1c(NC(=O)CO/N=C/c2cccs2)sc2c1CCCCC2
 : -1.2, x
